# Bioassay records deposited in PubChem by National Center for Advancing Translational Sciences (NCATS).
# HPGD inh: inhibitors of human 15-hydroxyprostaglandin dehydrogenase (HPGD) | purified HPGD, NADH fluorescence kinetic, PGE2 substrate | Potency, µM, for the others: top-dose activity change, negative = inhibition, hits mostly inhibitors | 4.3% of 150,000 active; active = well fitted inhibition curve with a large enough effect (not every such curve was filed as active); inconclusive = small, poorly fitted or top-dose-only effect, or another doubt; inactive = no such curve, though single readings can be large or run the other way;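 also: top concentration of the series not given in the record; plate controls included wells without enzyme; inactives centre near -10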
# Target sequence (P15428 whole entry, looked up): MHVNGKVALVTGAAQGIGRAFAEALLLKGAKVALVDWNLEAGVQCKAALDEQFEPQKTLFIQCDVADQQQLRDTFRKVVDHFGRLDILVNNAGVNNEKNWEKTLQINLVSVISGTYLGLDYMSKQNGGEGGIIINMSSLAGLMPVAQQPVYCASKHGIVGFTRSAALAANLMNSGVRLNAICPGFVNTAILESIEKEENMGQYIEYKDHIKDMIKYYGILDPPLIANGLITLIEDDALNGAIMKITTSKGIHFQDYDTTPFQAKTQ
#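 20 nM HPGD preincubated 15 min at room temperature with compound in 50 mM Tris-HCl pH 8, 0.01% Tween 20. Started with 1 mM NAD+ and 30 uM prostaglandin E2; NADH fluorescence (360/450 nm) read 5 times over 30-s intervals, last minus first.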
# Starred values were filed as active, the others as inactive; ? = inconclusive; & = joins results of further samples; [ ] = dose if it differs, or a comment. % is scaled to controls: 0 for no effect and ±100 for the full control effect; potency is read from the fitted curve at half-maximal effect. Not all compounds are listed; rates above refer to the full screens.
SMILES,HPGD inh
COc1ccc(/C=C2/N=C(c3cccs3)OC2=O)cc1OC(C)C,-6.7%
COc1ccc(C(=O)NCc2ccc(Cl)c(Cl)c2)cc1OC,-13.2%
CCn1c(CNc2cccc(Cl)c2)nnc1SCc1ccccc1,-4.5%
Cc1cc(C)c(S(=O)(=O)NCC2CCC(C(=O)NCCCN3CCOCC3)CC2)c(C)c1 (stereo unspecified),-0.8%
Clc1ccc(-c2nnc(-c3ccc(Br)o3)o2)c(Cl)c1,48.3%[activator]
O=C(Cc1ccccc1)Nc1c(C(=O)N2CCOCC2)cnn1-c1ccccc1,1.2%
Cc1ccc(-c2nc(CSCC(=O)N3CCCC3)c(C)o2)cc1,?
Clc1ccc(CO/N=C2\CCCc3nonc32)c(Cl)c1,-22.4%
CNC(=O)CCn1nc(-c2ccc(Cl)cc2)c2ccccc2c1=O,0.8%
CCCCn1c(CNC(C)=O)nc2ccccc21,-4.4%
Cc1ccc(-c2cc(N)n(Cc3ccc(Cl)cc3)n2)cc1,-16.8%
Cc1nc2cc(NC(=O)N3CC4(C)CC3CC(C)(C)C4)ccc2n1C (stereo unspecified),-6.8%
O=C(NNC(=O)c1cc(O)c(O)c(O)c1)NC1CCCCC1,?
Cc1sc(NC(=O)c2ccco2)c(CN2CCCCC2)c1C,-5.1%
CCOC(=O)c1ccc(CNC(=O)C2CCCCC2C(=O)OCC(F)(F)F)o1 (stereo unspecified),-8.5%
COc1cccc(NC(=S)/C(=C(\[O-])c2ccc(C)c([N+](=O)[O-])c2)[n+]2ccccc2)c1,-15.6%
O=C1CCN1C1(C(=O)NC2CCCCC2)CCCC1,-3.5%
COc1ccc(-n2c(CCc3ccccc3)nnc2SCC(=O)c2ccc(Cl)cc2)cc1,-18.4%
CCn1c(=O)c([N+](=O)[O-])c(N2CCOCC2)c2ccccc21,-2.1%
Cc1occc1C(=O)Nc1c(F)cc(F)cc1Br,-11.3%
NC(=NCCc1c[nH]c2ccccc12)NS(=O)(=O)c1ccc(F)cc1,1.8%
CNC/C(Cl)=N/S(=O)(=O)c1ccc(C)cc1,-0.2%
Cc1ccc(SCC(=O)n2nc(C)cc2C)cc1,-0.3%
COc1cc2c(cc1OC)C(c1ccccc1)=NCC2,-1.6%&-3.9%
O=C(CSc1oc(-c2ccc(F)cc2)nc1S(=O)(=O)c1ccccc1)NCC1CCCO1 (stereo unspecified),-24.7%
O=C(NCCc1csc(-c2cccnc2)n1)c1cccc2ccccc12,-16.6%
O=c1c2ccccc2n2cnnc2n1-c1ccccc1,-1.5%
COC(=O)c1sc(NC(=O)c2ccco2)nc1C,?
COC(=O)c1cc2sccc2n1Cc1nc(-c2ccc(OC)cc2)oc1C,-15.5%
CCc1nc(C)cc(N)c1OCc1ccccc1,-10.0%

# 4 entries from above, as labelled records.
COc1ccc(-n2c(CCc3ccccc3)nnc2SCC(=O)c2ccc(Cl)cc2)cc1
- HPGD inh = -18.4%
CCn1c(=O)c([N+](=O)[O-])c(N2CCOCC2)c2ccccc21
- HPGD inh = -2.1%
Cc1occc1C(=O)Nc1c(F)cc(F)cc1Br
- HPGD inh = -11.3%
NC(=NCCc1c[nH]c2ccccc12)NS(=O)(=O)c1ccc(F)cc1
- HPGD inh = 1.8%

# Carrying on:
SMILES,HPGD inh
Fc1ccc2c(c1)[C@H]1OCC[C@H]1[C@@H](c1ccco1)N2,-16.6%
COc1cc(C(=O)Nc2ccc(S(=O)(=O)NC(C)C)cc2)cc(OC)c1OC,-11.5%
CNC(=O)CN1C(=O)c2ccccc2S1(=O)=O,0.6%
CCCCC/C=C\C/C=C\C/C=C\CCCCC(=O)NC(C)C(=O)O (stereo unspecified),-1.5%
O=C(COc1ncnc2ccccc12)Nc1cccc(S(=O)(=O)N2CCOCC2)c1,-7.1%
Cc1cccc(NC(=O)C(c2cccc([N+](=O)[O-])c2)N2CCCCC2)c1 (stereo unspecified),-10.1%
COc1ccc(C(C)NC(=O)c2ccc([N+](=O)[O-])cc2)cc1OC (stereo unspecified),4.1%
COc1cccc(N=Nc2c(N)[nH]n3c(=O)cc(-c4ccccc4)nc23)c1,-19.3%
C=CCn1c(CCNC(=O)c2cccs2)nnc1SCC(=O)c1ccc(Cl)cc1,-20.0%
CCC(C)n1nccc1NC(=O)C(C)OC(=O)c1cc2ccccc2[nH]1 (stereo unspecified),?
CC1CN(C(=O)CSc2nc(-c3ccccc3)cs2)CC(C)O1 (stereo unspecified),-29.1%
O=C(Cn1c2ccccc2c(=O)c2ccccc21)Nc1cccc(F)c1,?
OC(COc1ccc2ccccc2c1Cl)CN1CCOCC1 (stereo unspecified),?
Cc1c([N+](=O)[O-])c(C(=O)Nc2ccc3c(c2)OCCO3)nn1C,-9.0%
CCN(CC)CC(O)COc1ccc2c(c1)OCO2 (stereo unspecified),-5.0%
O=C(Nc1ccc(S(=O)(=O)N2CCc3ccccc3C2)cc1)C1CCCO1 (stereo unspecified),-20.7%
O=C(C1CCC(C(=O)N2CCc3ccccc32)CC1)N1CCc2ccccc21 (stereo unspecified),-9.9%
CN(CC(N)=O)S(=O)(=O)c1ccc(F)cc1,0.0%
Cc1ccc(S(=O)(=O)CC(=O)c2ccccc2)cc1,-10.9%
CCCCC(=O)NC1(C(F)(F)F)C(=O)Nc2c1c(=O)[nH]c(=O)n2Cc1ccco1 (stereo unspecified),-21.4%
COC(=O)CCCC1=CC2=CC(=O)C(C)(OC(=O)c3cccs3)C(=O)C2=CN1Cc1ccccc1 (stereo unspecified),0.3%
C=CCNc1nc(Cl)ncc1F,-2.8%
CC(C)(C)N(Cc1ccccc1)C(=O)CSc1nnc(CNc2ccc(F)cc2)o1,-2.5%
COC(=O)c1sc(NC(=O)Cc2cccs2)nc1C,-7.9%
Cc1ccc(-n2c(Cc3cccs3)nnc2SCC(=O)OC(C)C)cc1,-15.1%
CCOC(=O)N1CCC2(CC1)C(C#N)=C(N)OC1=C2C(=O)CC(C)C1 (stereo unspecified),7.0%
CCOP(=O)(OCC)C(NC(=O)Nc1ccccc1)C(N)=O (stereo unspecified),-2.5%
Nc1ccc(C2(c3ccc(N)cc3)C(=O)Nc3ccccc32)cc1,-3.0%
Cc1cc(C)c(NC(=S)N(Cc2cccnc2)Cc2ccco2)c(C)c1,-6.5%
Clc1ccc2c(N3CCC(CCC4CCN(c5ncnc6cc(Cl)ccc56)CC4)CC3)ncnc2c1,-3.8%
O=S(=O)(Nc1cccnc1)c1ccc(C2CCCCC2)cc1,-4.4%
O=c1cc(Cn2ccnc2)c2cc3c(cc2o1)CCC3,-23.8%
CCOC(=O)C(NC(C)=O)(Nc1ccc(S(=O)(=O)Nc2ccncn2)cc1)C(F)(F)F (stereo unspecified),0.6%
Cc1cccc(-n2c(C)n[nH]c2=S)c1C,-13.0%
COc1ccc(C(=O)NC2CCN(C(=S)NCc3ccco3)CC2)cc1,1.1%
CCOC(=O)c1ccc(NC(=O)c2ccccc2C)cc1,-11.7%
COc1ccc(CCN(C(=S)Nc2ccccc2)C2CC(=O)N(c3ccccc3)C2=O)cc1 (stereo unspecified),-9.3%
Cc1cc(C(=O)NCc2cccnc2)no1,-8.5%
CCN(CC)CCOc1nc(C)nc2c1oc1ccccc12,-5.5%
COc1cccc(-n2c(SC)nnc2-c2cnccn2)c1,-16.5%
CC(=O)[C@@H]1[C@@H]2C(=O)N(c3ccc(F)c(Cl)c3)C(=O)[C@@H]2C2c3ccccc3C=CN21 (stereo partly specified),22.4µM*
COC(=O)c1cc(C(=O)c2ccc(Cl)cc2Cl)cn1C,-24.5%
COc1ccc(Cn2c(O)c(C=Nc3ccccc3)c3ccccc3c2=O)cc1,-10.0%
CN(C)C(=O)COC(=O)/C=C/c1ccccc1[N+](=O)[O-],2.0%
Nc1ccccc1Nc1ccccc1,-23.1%
Cc1ccccc1NC(=O)c1c(F)c(F)c(F)c(F)c1F,-5.6%
COc1ccccc1-c1cc(-c2ccccc2)nc(SC(C(N)=O)c2ccccc2)c1C#N (stereo unspecified),?
COc1ccc(-c2nc(-c3ccccc3)c(NC(C)C)o2)cc1,-10.1%
Cc1cc(N2CCCC2=O)cc(C)c1S(=O)(=O)NCCOc1ccc(C(C)(C)C)cc1,-3.9%
O=c1c(-c2ccc3c(c2)OCCO3)c(C(F)(F)F)oc2cc(O)cc(O)c12,-9.2%
O=C(CSc1nnc2scc(-c3ccccc3)n12)N1CCN(Cc2ccccc2)CC1,-9.0%
COc1ccc(N=NC2=C(O)CC(C)(C)CC2=O)c(OC)c1,-13.2%
CC(=O)N1CCN(c2ccc(NC(=S)NC(=O)COc3ccc(C(C)(C)C)cc3)cc2)CC1,-9.9%
COc1ccc(-n2c(=O)c3ccccc3n(CC(=O)NC3CCCC3)c2=O)cc1,-10.3%
COc1cccc(-c2nc(N3CCNCC3)c3ccccc3n2)c1,-6.2%
Fc1ccc2c(c1)C1C=CCC1C(c1cc3c(cc1Br)OCO3)N2 (stereo unspecified),-19.0%
CCN1CCN(c2cc(C)c3cc(NC(=O)Cc4ccccc4OC)ccc3n2)CC1,?
CC1CC(C)CN(C(=O)c2ccc(NC(=O)c3ccc(=O)[nH]c3)cc2)C1 (stereo unspecified),7.94µM*
O=C(O)C(F)(F)S(=O)(=O)O,-10.9%
Cc1noc(C)c1COC(=O)c1cccnc1SCC(=O)Nc1ccc2c(c1)OCO2,-12.1%
# (further entries)
SMILES,HPGD inh
COc1ccc(NC(=O)c2oc3cc(C)c(C)cc3c2C)c(OC)c1,?
CC(CCc1ccccc1)NC(=O)CSc1ccccc1 (stereo unspecified),-3.9%
CC(C)CCn1nnnc1C(c1ccc(F)cc1)N1CCN(C(=O)c2ccco2)CC1 (stereo unspecified),-1.1%
COc1ccccc1-c1nnc(SCCN2CCOCC2)n1-c1ccc(C)cc1,-7.9%
CSc1nc2sc3c(c2c2nnnn12)CCCC3,?
O=C(NC(=S)Nn1cnc2c(cnn2-c2ccccc2)c1=O)c1ccccc1,-23.4%
COc1cc(/C=N/NC(=O)CCn2nnc3ccccc32)ccc1O,-5.0%
CN(C)C(=O)CSc1nnc(CCNC(=O)OC(C)(C)C)o1,-8.7%
COc1cc(NC(C(=O)Nc2cccc(C(C)=O)c2)c2ccccc2)cc(OC)c1OC (stereo unspecified),-9.8%
C/C(=N\OC(=O)c1ccc(F)cc1)c1nccs1,-14.8%
Nc1cc(C(=O)c2ccccc2)ccc1N1CCOCC1,-28.3%
COc1cccc(C2=CC(c3cc(OC)ccc3OC)n3nnnc3N2)c1 (stereo unspecified),-13.4%
C=CCn1c(CCNC(=O)c2cccs2)nnc1SCC(=O)Nc1cccc(F)c1,-4.3%
O=C(CNc1cccc(C(F)(F)F)c1)N/N=C/c1cccc(Br)c1,-10.2%
CCc1c(C)nc2ncnn2c1N1CCCC(C(=O)NCCc2ccccc2)C1 (stereo unspecified),-45.7%
Cc1cc(C)cc(N(C(=O)c2csnn2)C(C(=O)NC(C)(C)C)c2cccs2)c1 (stereo unspecified),0.3%
Cc1ccccc1NC(=O)c1ccccc1,?
COc1cc(-c2nn3c(-c4ccccc4)nnc3s2)cc(OC)c1OC,?
Cc1ccc(NS(=O)(=O)c2cc(C(=O)O)ccc2Cl)c(C)c1,-9.3%&-14.1%
CC(C)OC(=O)CSc1nnc(-c2cccnc2)n1N,-12.0%
CC(C)Cc1cc(C(=O)Nc2c(F)cc(F)cc2Br)no1,?
c1ccc(-c2nn3c(Cn4cnc5ccccc54)nnc3s2)cc1,4.47µM*
CC(C)OC(=O)C1C2C=CC3(CN(C(C)c4ccc(Br)cc4)C(=O)C13)O2 (stereo unspecified),-9.1%
CCCCOC(=O)CCc1c(C)[nH]c(=O)c(C#N)c1C,-20.6%
CCCCCCn1c(CN2CCCCC2C)nc2c1c(=O)n(C)c(=O)n2C (stereo unspecified),-14.8%
Cc1cc(NC(=O)CCC(=O)N(Cc2cccs2)C(C(=O)NC2CCCC2)c2cccnc2)no1 (stereo unspecified),-7.0%
CNC1C(OC2C(O[C@@H]3C(O)C(O)[C@@H](N=C(N)N)C(O)C3N=C(N)N)OC(C)[C@@]2(O)CO)OC(CO)C(O)C1O (stereo partly specified),-10.2%
CN(C)S(=O)(=O)c1cccn1-c1ncc(C(F)(F)F)cc1Cl,-6.7%
O=C(CN(C(=O)c1cccc([N+](=O)[O-])c1)C1CCCCC1)Nc1ccc(Cl)c([N+](=O)[O-])c1,-5.5%
C=CCn1c(N)c(C(=O)OC(C)CC)c2nc3ccccc3nc21 (stereo unspecified),?
COc1ccc(NC(=O)CSc2ncnc3c2sc2ccccc23)c(OC)c1,-16.4%
COc1ccc(C2CC(=O)C3=C(C2)Nc2ccccc2N(C(=O)C2CC2)C3c2cccnc2)cc1OC (stereo unspecified),-20.9%
CCCCC(=O)O[C@H]1CC[C@H]2[C@@H]3CCc4cc(O)ccc4[C@H]3CC[C@]12C,-6.4%
COc1cc(/C=N\NC(=O)c2ccc(Cn3nc([N+](=O)[O-])c(Cl)c3C)o2)ccc1O,-4.1%
COc1ccc(NC(=O)C(c2cc3c(cc2[N+](=O)[O-])OCO3)N2CCN(C=O)CC2)cc1 (stereo unspecified),-20.1%
O=C(c1cccc(F)c1)N1CCC2(CCCN(c3ccc(-c4ccccc4)cc3)C2)CC1,-9.6%

# 3 compounds picked at random from the list so far, as already listed:
SMILES,HPGD inh
CCCCC(=O)O[C@H]1CC[C@H]2[C@@H]3CCc4cc(O)ccc4[C@H]3CC[C@]12C,-6.4%
COc1cc(/C=N\NC(=O)c2ccc(Cn3nc([N+](=O)[O-])c(Cl)c3C)o2)ccc1O,-4.1%
COc1ccc(NC(=O)C(c2cc3c(cc2[N+](=O)[O-])OCO3)N2CCN(C=O)CC2)cc1 (stereo unspecified),-20.1%

# In another format: entries from further up
COc1cc(/C=N\NC(=O)c2ccc(Cn3nc([N+](=O)[O-])c(Cl)c3C)o2)ccc1O
  HPGD inh: -4.1%

COc1ccc(NC(=O)C(c2cc3c(cc2[N+](=O)[O-])OCO3)N2CCN(C=O)CC2)cc1 (stereo unspecified)
  HPGD inh: -20.1%
